Assay outcomes (PubChem BioAssay)
Mtb growth – Confirmatory growth inhibition assay against Mycobacterium tuberculosis H37Rv, potency (AID 1949) | most inactive calls were filed without a number and no value below 0 was filed | one-dose inhibition, % at 10 µg/mL; IC50 in µg/mL for titrated hits | hit rate 1.6% among 100,000;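 active means confirmed in a dose series; inconclusive means about 50% or more but not retested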;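 further: bacteria grown 7 days with compound before Alamar blue readout; 0% = untreated bacteria and 100% = reference antibiotic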
Starred values were filed as active, the others as inactive.

How did C=CCC(Nc1cccc(Cl)c1)c1ccco1 (stereo unspecified) do in these assays?
Mtb growth: 1%

How did COc1ccc(-c2[nH]c(-c3ccc(C(=O)O)cc3)nc2-c2ccccc2)cc1 do in these assays?
Mtb growth: inactive

How did CCOc1cc(C=O)ccc1OCC(=O)N1CCOCC1 do in these assays?
Mtb growth: inactive

How did CCN(CC)c1ccc2cc(-c3nnc(-c4ccc(OC)cc4)o3)c(=O)oc2c1 do in these assays?
Mtb growth: inactive

Results for O=C(Nc1cccnc1)C1(c2ccccc2)CCCC1 ?
Mtb growth: inactive

How did O=C(Nc1ccc([N+](=O)[O-])c(NC(=O)c2cccnc2)c1)c1cccnc1 do in these assays?
Mtb growth: inactive

Results for O=S1(=O)c2cccc3cccc(c23)N1CCc1ccccc1 ?
Mtb growth: 18%

How did COc1c(S(=O)(=O)NC2CCCCC2)ccc(Cl)c1Cl do in these assays?
Mtb growth: inactive

How did COc1ccc(N(C)C(=S)Nc2ccc3nc(C)c(C)nc3c2)cc1 do in these assays?
Mtb growth: inactive

How did CCOC(=O)c1ccc(NC(=S)NC2CCCc3ccccc32)cc1 (stereo unspecified) do in these assays?
Mtb growth: inactive

Results for CCOc1ccccc1NC(=S)Nc1ccccc1I ?
Mtb growth: inactive

Results for Cc1ccc(NC(=O)C2CCCCC2C(=O)O)cc1F (stereo unspecified) ?
Mtb growth: inactive

How did c1ccc2c3c(c(CN4CCCC4)cc2c1)COC3 do in these assays?
Mtb growth: inactive

Results for CCS(=O)(=O)NCCNc1ccc([N+](=O)[O-])cc1Cl ?
Mtb growth: inactive

How did CCCCc1cc(=O)oc2cc(OCC(=O)Nc3ccc(C)cc3)ccc12 do in these assays?
Mtb growth: 1%

How did CC(=O)c1ccc(NC(=O)CNS(=O)(=O)c2cccc(Cl)c2)cc1 do in these assays?
Mtb growth: 0%

What do the screens show for `CC(C)c1ccc2oc(-c3ccc(NC(=O)c4ncn[nH]4)cc3)nc2c1`?
Mtb growth: 12%

What do the screens show for `COCCCNC(=O)c1ccc(C(C)C)cc1`?
Mtb growth: inactive

Results for Nc1nnc(SCC(=O)Nc2ccc(N3CCOCC3)cc2)s1 ?
Mtb growth: inactive

How did Oc1ccccc1-c1nc(Nc2ccc(Br)cc2)c2ccccc2n1 do in these assays?
Mtb growth: inactive

Overlap with the part before: 2 compounds, then new ones.
Results for Nc1nnc(SCC(=O)Nc2ccc(N3CCOCC3)cc2)s1 ?
Mtb growth: inactive

How did Oc1ccccc1-c1nc(Nc2ccc(Br)cc2)c2ccccc2n1 do in these assays?
Mtb growth: inactive

How did O=C(CN1C(=O)c2ccccc2S1(=O)=O)Nc1ccc(S(=O)(=O)N2CCOCC2)cc1 do in these assays?
Mtb growth: inactive

Results for O=C(Nc1ccc(F)cc1)C1COc2ccccc2O1 (stereo unspecified) ?
Mtb growth: 43%

Results for CC(=O)Nc1ccccc1NC(=O)C(C)(C)Oc1ccc(Cl)cc1 ?
Mtb growth: inactive

Results for CCCCOc1ccc(C(=O)Nc2c(C)cccc2CC)cc1 ?
Mtb growth: 6%

How did Brc1cnc(N2CCCCC2)nc1N1CCOCC1 do in these assays?
Mtb growth: 2%

What do the screens show for `COc1cc(OC)c(NC(=O)c2cccc3ccccc23)cc1Cl`?
Mtb growth: 6%

Results for Nc1c(C(=O)Nc2ccccc2C(F)(F)F)sc2nc3c(cc12)CCCC3 ?
Mtb growth: inactive

What do the screens show for `Cc1ccc(CNC(=O)C2CCN(C(=O)c3ccc(F)cc3)CC2)cc1`?
Mtb growth: inactive

What do the screens show for `Fc1ccc(CNCc2ccccn2)cc1`?
Mtb growth: inactive

What do the screens show for `CCc1ccccc1N(CC(=O)Nc1cc(C)ccc1OC)S(C)(=O)=O`?
Mtb growth: inactive

How did NS(=O)(=O)c1ccc(NC(=O)c2cccnc2)cc1 do in these assays?
Mtb growth: inactive

Results for COc1cc(C(=O)Oc2ccccc2Cl)cc(OC)c1OC ?
Mtb growth: 46%

Results for COc1ccc(-c2csc3ncn(CC(=O)Nc4ccccc4Cl)c(=O)c23)cc1 ?
Mtb growth: 6%

How did CON(S(=O)(=O)c1ccccc1)S(=O)(=O)c1ccccc1 do in these assays?
Mtb growth: inactive

What do the screens show for `Cc1ccc(C(=O)N2CCN(c3cccc(Cl)c3)CC2)c(C)c1`?
Mtb growth: 5%

How did Cc1ccc(N(Cc2ccc(C(=O)O)cc2)S(C)(=O)=O)cc1C do in these assays?
Mtb growth: inactive

How did COc1ccc(OC)c(S(=O)(=O)N2CCC(C(=O)N3CCc4ccccc4C3)CC2)c1 do in these assays?
Mtb growth: inactive

How did CC(C)c1c(O)nc(SCC(=O)NCc2ccco2)n(-c2ccccc2)c1=O do in these assays?
Mtb growth: inactive

What do the screens show for `CCOc1ccccc1N1CCN(S(=O)(=O)c2ccc(NC(C)=O)cc2)CC1`?
Mtb growth: inactive

What do the screens show for `N#C/C(=C/c1c(F)cccc1Cl)C(N)=S`?
Mtb growth: 31%

Filtered by structure, the entries above containing a thiophene ring, fused or not.
Results for Nc1c(C(=O)Nc2ccccc2C(F)(F)F)sc2nc3c(cc12)CCCC3 ?
Mtb growth: inactive

Results for COc1ccc(-c2csc3ncn(CC(=O)Nc4ccccc4Cl)c(=O)c23)cc1 ?
Mtb growth: 6%

More structures.
What do the screens show for `CCOc1cc(C(=O)Nc2ccc(N3CCN(C(=O)c4ccccc4C)CC3)cc2)cc(OCC)c1OCC`?
Mtb growth: inactive

Results for CCOc1ccc(NC(=O)CSc2nnc(-c3ccccc3)n2CCOC)cc1 ?
Mtb growth: inactive

Results for COc1ccc(C2C(C#N)=C(SCC(=O)Nc3cccc(C(F)(F)F)c3)NC3=C2C(=O)CC(C)(C)C3)cc1 (stereo unspecified) ?
Mtb growth: 6%

What do the screens show for `Cc1cccc2c(N=NC(=O)COc3cccc(Br)c3)c(O)[nH]c12`?
Mtb growth: inactive

How did CCC1CCCCN1C(=O)c1cccc(OC)c1 (stereo unspecified) do in these assays?
Mtb growth: inactive

What do the screens show for `CCOC(=O)CCc1c(C)c(C#N)c2[nH]c3ccccc3n2c1=O`?
Mtb growth: <0.1µg/mL*

How did CCOC(=O)c1ccc(NS(=O)(=O)c2ccc(OCC(=O)OC)cc2)cc1 do in these assays?
Mtb growth: inactive

Results for CC1CC(C)CN(C(=O)C(C)(C)Oc2ccc(Cl)cc2)C1 (stereo unspecified) ?
Mtb growth: inactive

How did Cc1cc(C(F)(F)F)nc(SCC(=O)N2c3ccccc3Sc3ccccc32)n1 do in these assays?
Mtb growth: 8%

What do the screens show for `COc1ccc(S(=O)(=O)NNC(=S)NCCc2ccccc2)c(OC)c1`?
Mtb growth: inactive

What do the screens show for `Cc1ccc(S(=O)(=O)N(CC(=O)N2CCCCCC2)Cc2ccccc2F)cc1`?
Mtb growth: inactive

What do the screens show for `COc1ccc(OC)c(NC(=S)NC(=O)c2ccc(Br)o2)c1`?
Mtb growth: inactive

What do the screens show for `N#Cc1c(NC(=O)c2cnn3c(C(F)(F)F)cc(-c4ccco4)nc23)sc2c1CCCC2`?
Mtb growth: inactive

How did COC(=O)C1=C(C)N(C)C(=O)NC1c1ccc(-c2cccc(C(F)(F)F)c2)o1 (stereo unspecified) do in these assays?
Mtb growth: inactive

What do the screens show for `O=C(COc1ccccc1Cl)Nc1cc(Cl)ccc1O`?
Mtb growth: inactive

Results for CCOC(=O)c1ccc2[nH]c(C)c(C/C=C(/C)Cl)c(=O)c2c1 ?
Mtb growth: inactive

Results for CCc1cc2c(=O)c(Oc3ccccc3F)c(C)oc2cc1OC ?
Mtb growth: inactive

How did CCCC(=O)Nc1nc2ccc(S(=O)(=O)N3CCCCC3)cc2s1 do in these assays?
Mtb growth: 7%

What do the screens show for `CC1(C)CC(=O)c2cnc(NCc3ccc4c(c3)OCO4)nc2C1`?
Mtb growth: 3%

Results for CCOC(=O)CNC(=O)CSc1nnc(-c2cccs2)n1C ?
Mtb growth: inactive

How did CCOc1ccc(N(CC(=O)NC2CCCC2)S(=O)(=O)c2ccc(SC)cc2)cc1 do in these assays?
Mtb growth: inactive

How did COc1ccccc1OCc1ccc(C(=O)NCC(C)C)o1 do in these assays?
Mtb growth: inactive

Results for CCn1cc(Br)c(C(=O)Nc2cc(C)ccc2F)n1 ?
Mtb growth: inactive

Results for CCOc1ccc(-c2c(C)sc3ncn(Cc4cccc(C)c4)c(=O)c23)cc1 ?
Mtb growth: 12%

Results for O=C(O)CCCC(=O)NNC(=O)c1cccc(Br)c1 ?
Mtb growth: inactive

How did c1ccc(-c2cc(-c3nc(-c4ccncc4)no3)c3ccccc3n2)cc1 do in these assays?
Mtb growth: inactive

What do the screens show for `COc1ccc(NC(=O)Nc2cc(C(C)C)c(OC)cc2C)cc1OC`?
Mtb growth: inactive

How did Cc1ccc2c(c1)c1c(n2CC(O)CNCc2ccccc2)C(=O)CCC1 (stereo unspecified) do in these assays?
Mtb growth: inconclusive

How did COc1ccc(S(=O)(=O)N(C)CC(=O)Nc2ccccc2Br)cc1C do in these assays?
Mtb growth: inactive

How did O=C(NCc1ccccn1)C1CCC(Cn2c(=S)[nH]c3ccccc3c2=O)CC1 (stereo unspecified) do in these assays?
Mtb growth: 1%

What do the screens show for `O=C1CCCN1c1ccc(S(=O)(=O)Nc2ccc(Cc3ccncc3)cc2)cc1`?
Mtb growth: inactive

What do the screens show for `COc1ccc(C(=O)NNS(=O)(=O)N(C)C)cc1OC`?
Mtb growth: inactive

Results for Cc1cccc(N2C(=O)NC(=O)C(CCc3ccncc3)(Cc3ccc(C(C)C)cc3)C2=O)c1 (stereo unspecified) ?
Mtb growth: inactive

What do the screens show for `CC(=O)c1ccc(N2CCOCC2)c(F)c1`?
Mtb growth: inactive

Results for COc1ccc(CNC(=O)c2ccc(SC)cc2OC)cc1 ?
Mtb growth: inactive

Results for Cn1c(SCC(=O)Nc2cccc(C(=O)O)c2)nnc1-c1cc2cc(Br)ccc2o1 ?
Mtb growth: inactive

Results for COC(=O)c1cc(NC(=O)CSCc2ccccc2)cc(C(=O)OC)c1 ?
Mtb growth: inactive

What do the screens show for `CCN(CC)C(=O)C(=O)N1CCN(c2cc(Cl)ccc2C)CC1`?
Mtb growth: inactive

Results for Nc1nc(-c2cccnc2)nn1C(=O)c1cccs1 ?
Mtb growth: inactive

How did COc1cc(C(=O)N2CCN(C(=O)COc3ccc4ccccc4c3)CC2)cc(OC)c1OC do in these assays?
Mtb growth: inactive

Part of the list above in order of heavy-atom count, rising.
Results for CCOc1ccccc1NC(=S)Nc1ccccc1I ?
Mtb growth: inactive

What do the screens show for `COc1cc(OC)c(NC(=O)c2cccc3ccccc23)cc1Cl`?
Mtb growth: 6%

How did O=C(Nc1ccc([N+](=O)[O-])c(NC(=O)c2cccnc2)c1)c1cccnc1 do in these assays?
Mtb growth: inactive

What do the screens show for `CCOc1ccccc1N1CCN(S(=O)(=O)c2ccc(NC(C)=O)cc2)CC1`?
Mtb growth: inactive

How did Cc1cc(C(F)(F)F)nc(SCC(=O)N2c3ccccc3Sc3ccccc32)n1 do in these assays?
Mtb growth: 8%

How did COc1cc(C(=O)N2CCN(C(=O)COc3ccc4ccccc4c3)CC2)cc(OC)c1OC do in these assays?
Mtb growth: inactive

Additional compounds follow.
What do the screens show for `CNc1nc(OCC#N)nc(N2CCCCC2)n1`?
Mtb growth: 0%

What do the screens show for `COc1ccc(N(CC(=O)Nc2ccc(F)cc2F)S(=O)(=O)c2ccc(C)c([N+](=O)[O-])c2)cc1`?
Mtb growth: inactive

Results for CN(C)CCCn1c(-c2ccc([N+](=O)[O-])cc2)nc(=S)c2c1CCCC2 ?
Mtb growth: inactive

Results for Cc1ccc(CN(c2ccc(C(=O)Nc3ccc(Cl)c(Cl)c3)cc2)S(C)(=O)=O)cc1 ?
Mtb growth: inactive

How did CCOC(=O)c1ccc(NC(=S)N2CCN(C(=O)OCC)CC2)cc1 do in these assays?
Mtb growth: inactive

How did Cc1cc(C)cc(C(=O)Nc2ccc(Cl)cc2C(F)(F)F)c1 do in these assays?
Mtb growth: inactive

What do the screens show for `COC(=O)c1sccc1NC(=O)c1oc2ccccc2c1C`?
Mtb growth: inactive

What do the screens show for `O=C(Nc1c(C(=O)N2CCCCC2)cnn1-c1ccccc1)c1ccccc1`?
Mtb growth: inactive

Results for Cc1cc(OCC(=O)n2cnnc2N)cc(C)c1Cl ?
Mtb growth: inactive

What do the screens show for `COC(=O)c1c(NC(=O)C2(C)CC2(Cl)Cl)sc2c1CCC(C)C2` (stereo unspecified)?
Mtb growth: 15%

How did Cc1ccc(C)c(C(=O)Nc2ncn[nH]2)c1 do in these assays?
Mtb growth: inactive

What do the screens show for `CCCCOc1ccc(C(=O)Nc2sc3c(c2C#N)CC(C)(C)OC3)cc1`?
Mtb growth: 1%

How did NC(=O)c1ccccc1NC(=O)CSc1nc2ccccc2o1 do in these assays?
Mtb growth: inactive

What do the screens show for `O=C(Nc1c(C(=O)Nc2ccc(Cl)cc2)cnn1-c1ccccc1)c1ccco1`?
Mtb growth: inactive

How did Cn1c(NC(=O)c2cccc(F)c2)cc(=O)n(C)c1=O do in these assays?
Mtb growth: inactive

Results for CCOC(=O)c1c(-c2ccc(C)c(C)c2)csc1NC(C)=O ?
Mtb growth: 3%

Results for Cc1cc(Br)cc(C)c1NC(=O)c1sc2cc(Cl)ccc2c1Cl ?
Mtb growth: inactive

What do the screens show for `O=C(c1ccccc1)c1ccc(NC(=S)Nc2ccccc2)cc1`?
Mtb growth: inactive

What do the screens show for `CS(=O)(=O)N(CC(=O)Nc1ccccc1C(N)=O)c1cccc(Br)c1`?
Mtb growth: inactive

Results for O=C1CC(N2CCc3ccccc3C2)C(=O)N1c1cccc(C(F)(F)F)c1 (stereo unspecified) ?
Mtb growth: inactive

How did CCOc1ccc(NC(=O)CCOc2cccc(C)c2)cc1 do in these assays?
Mtb growth: inactive

What do the screens show for `CN(C)CCNc1ccc(-c2nn(C)c(=O)c3ccccc23)cc1[N+](=O)[O-]`?
Mtb growth: 1%

Results for COc1ccc(OC)c(CN2CCN(Cc3ccc(OC)c(Br)c3)CC2)c1 ?
Mtb growth: inactive

The list is partial, so the mix of outcomes need not match the whole.
